Compound activity deposited in PubChem by several laboratories.
eIF4H inh: human eIF4H binding inhibitors, primary screen, translation initiation inhibitor project, biochemical, uHTS, fluorescence polarization; Eukaryotic translation initiation factor 4H (Homo sapiens), Q15056; eIF4H fluorescence polarization binding assay; inhibition, % at 35 µM; actives 0.94% (n = 290,000); AID 2012, 2009;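 active = 50% or more with normal probe brightness, or confirmed in later tests; about a fifth of its hits are not listed in these tables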;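 also: calls also rest on retests at 20 µM and on dose response follow-up; 0% = protein and probe with vehicle and 100% = probe without protein; strong numbers were not always called active; many hits fall short of the cut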
MT1-MMP act inh: blockers of MT1-MMP proenzyme processing, primary screen, HT1080 RFP-PRO-GFP cells, GFP/RFP fluorescence; Matrix metalloproteinase-14 (Homo sapiens), P50281; GFP/RFP ratio fluorescence, overnight; percent of plate control window, DMSO zero; GFP/RFP ratio change, % at 20 µM; actives 0.061% (n = 360,000); AID 651647, 2012;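 active = GFP/RFP ratio change of at least 30% with cell ATP level not reduced by more than half and red fluorescence within 50% of control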; also: strong numbers were not always called active
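system = RFP-PRO-GFP reporter HT1080 cells | dosing = 20 µM single dose, 1% DMSO | timing = overnight cell settling, then overnight compound exposure, 37 °C, 5% CO2 | read-out basis = GFP/RFP fluorescence ratio | controls = DMSO and RFP-L50D-GFP cell wells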
Rce1 inhib: yeast Rce1p protease inhibitors, primary screen, biochemical, fluorescence, cell-free homogeneous; CAAX prenyl protease 2 (Saccharomyces cerevisiae (strain ATCC 204508 / S288c)), Q03530; yeast membranes, quenched prenylated peptide cleavage fluorescence; calls only; actives 0.27% (n = 290,000); AID 2563, 2010;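 active = fall in fluorescence gain of 50% or more versus controls, with final raw signal at or below 3038400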;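 also: plate controls were neutral control wells for no effect and wells lacking membranes for full effect; tested at 10 µM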
HIV Env fusion: inhibitors of HIV-1 Env-driven cell-cell fusion, primary screen, HeLa-JRFL effector, CEM21 target cells, luciferase | actives 1.1% (n = 360,000) | inhibition, % at 12.3 µM;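 active = mean replicate inhibition score of at least 50 and every replicate individually at or above 50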;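 also: 0% = plate neutral controls and 100% = maraviroc near 300 nM; one replicate is shown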
PABP polyA inh: PABP poly(A) RNA binding inhibitors, primary screen, biochemical, fluorescence polarization, uHTS; actives 1% (n = 290,000); inhibition, % at 35 µM; AID 2014, 2009;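 active = 50% or more with normal probe brightness, or confirmed in later tests; about a fifth of its hits are not listed in these tables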;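 also: calls also rest on retests at 20 µM and on dose response follow-up; controls were probe without protein and protein plus probe with vehicle; some compounds called inactive have numbers as strong as hits; many hits fall short of the cut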
Target sequence (P11940 whole entry, looked up): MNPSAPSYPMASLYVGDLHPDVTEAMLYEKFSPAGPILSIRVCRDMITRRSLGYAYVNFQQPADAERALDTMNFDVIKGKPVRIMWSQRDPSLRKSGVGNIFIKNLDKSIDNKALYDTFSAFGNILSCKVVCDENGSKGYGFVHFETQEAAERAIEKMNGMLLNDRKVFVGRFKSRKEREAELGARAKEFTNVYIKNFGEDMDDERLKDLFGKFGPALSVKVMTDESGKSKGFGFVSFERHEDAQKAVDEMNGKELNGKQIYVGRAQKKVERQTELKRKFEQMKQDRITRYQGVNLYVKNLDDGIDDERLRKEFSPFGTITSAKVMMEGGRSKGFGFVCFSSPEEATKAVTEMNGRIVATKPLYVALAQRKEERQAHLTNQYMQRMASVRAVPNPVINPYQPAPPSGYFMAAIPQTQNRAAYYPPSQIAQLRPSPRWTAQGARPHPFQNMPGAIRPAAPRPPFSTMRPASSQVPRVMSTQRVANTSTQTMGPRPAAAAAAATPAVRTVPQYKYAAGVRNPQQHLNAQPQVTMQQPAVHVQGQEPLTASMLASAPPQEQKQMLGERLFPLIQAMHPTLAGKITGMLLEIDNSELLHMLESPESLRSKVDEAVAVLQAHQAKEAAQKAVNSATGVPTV
CSC inhib: cancer stem cell viability inhibitors, primary screen, luminescence | cancer stem cell-like cells viability | actives 1.1% (n = 300,000) | inhibition, % at 7.5 µM;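 active = mean at 75% or more and at least half the replicates too; tested in HMLE shEcad cells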;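 also: 0% = median of negative and 100% = median of positive control wells; the first replicate is given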
UUG fidelity: modulators of yeast start codon fidelity, primary screen, whole organism, S. cerevisiae, single point, plate reader; S. cerevisiae UUG-firefly luciferase reporter, luminescence/redox ratio; activity score, % at 18.7 µM; actives 0.13% (n = 350,000);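 active = replicate mean at a twofold rise or more, about +100% in these data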;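 also: firefly luciferase made from a UUG start codon reports start codon fidelity; reporter light over untreated wells divided by growth signal over untreated wells; some hits fall short of that in this replicate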
MT1-MMP act inh RFP: also measured in MT1-MMP act inh; calls as there; RFP signal change, %; measured here: RFP expression control read;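 0 = vehicle wells; hits needed this value within 50% of zero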
The depositor's hits bear a star; i = inactive; . = no result given; & = joins results of further samples. An unsorted share of the library; about 2.9% have a hit in one of these screens.

SMILES	eIF4H inh	MT1-MMP act inh	MT1-MMP act inh RFP	Rce1 inhib	HIV Env fusion	PABP polyA inh	CSC inhib	UUG fidelity
CCc1ccccc1NC(=O)COc1ccc(N2CC(C(N)=O)CC2=O)cc1 (stereo unspecified)	9	-1	3	i	-9	8	.	-2
COCCNC(=O)C(=O)N/N=C(\C)CC(=O)Nc1ccc(Cl)cc1Cl	5	17	3	i	-11	-2	-4	.
Cc1ccc(C(CNC(=O)c2ccc(Br)o2)N2CCN(C)CC2)cc1 (stereo unspecified)	.	-1	5	i	5	.	-7	5
Nn1c(=S)[nH]nc(Cc2ccc(O)cc2)c1=O	1	6	4	i	54	5	-2	.
CCOC(=O)c1ccc(CNC(=O)Cn2nnc(-c3ccc(C)cc3)n2)o1	-4	0	1	.	-26	-3	-5	-56
Cc1ccc2c(c1)c1c(n2CC(O)Cn2c(C)nc3ccccc32)C(=O)CCC1 (stereo unspecified)	-6	2	-11	i	-11	1	5	11
O=C(Cn1c(-c2ccccc2)c[n+]2ccsc12)c1ccc(Br)cc1	-3	-11	-13	i	-7	2	-10	-12
Cc1ccc(NC(=O)CCN2C(=O)CSC2=O)c(C)c1	-8	-4	3	i	.	6	-11	61
C=CCn1c(O)c(C2=c3ccccc3=NC2=O)c2ccccc21	-10	-3	-5	i	-28	3	96*	-11
CCCCn1c(N)c(N(CC(C)C)C(=O)c2cccc(OCc3ccccc3)c2)c(=O)[nH]c1=O	.	-3	-5	i	29	.	10	-5
COC(=O)CCN(C1CCCCC1)S(=O)(=O)c1ccc(S(=O)(=O)NC2CCCCC2)cc1	-4	-13	-10	i	-176	0	-13	-28
CCC(CC)NCc1ccc(OC)cc1OC	2	3	3	i	-8	1	1	-8
O=[N+]([O-])c1cc(S(=O)(=O)NCCCN2CCOCC2)ccc1Cl	-7	5	7	i	.	-3	8	-5
O=C(/C=C/c1ccc(Cl)c(Cl)c1)n1cccn1	-5	-2	0	i	-48	1	.	-7
COc1ccc(-c2cc(=Nc3c(C)n(C)n(-c4ccccc4)c3=O)c3ccccc3o2)cc1	-4	-1	-1	i	-78	1	-2	-14
CC1(C(=O)NC2CCN(Cc3ccccc3)CC2)CCN1Cc1cc2ccccc2o1 (stereo unspecified)	.	-4	6	.	-2	.	.	-36
Cc1ccc(CSCC(=O)Nc2cc(S(=O)(=O)N3CCOCC3)ccc2OC(C)C)cc1	.	-4	-11	i	18	.	8	.
CCc1ccccc1NC(=O)c1ccc(-n2c(C)ccc2C)cc1	-8	1	2	i	-112	15	-5	-17
Cc1sc(NC(=O)c2ccco2)c(C(c2cccnc2)N2CCN(c3ccc(F)cc3)CC2)c1C (stereo unspecified)	2	6	-32	i	27	-2	24	-22
Cc1cc(Br)ccc1SCC(=O)OCC(=O)Nc1ncc(C(F)(F)F)cc1Cl	-5	-2	1	i	16	2	2	-19
CN(C)C(=O)N1CCC(C(=O)NCc2ccc3c(c2)OCO3)CC1	11	1	0	i	-79	1	10	-2
CCC1Sc2ccc(S(=O)(=O)CCC(=O)NCc3ccco3)cc2NC1=O (stereo unspecified)	.	5	-6	i	0	.	-4	-11
COc1ccc(NC(=O)c2cccc(S(=O)(=O)N3CCN(C)CC3)c2)c(OC)c1	-4	4	5	i	24	0	-10	-16
CCN1CCCC1Cn1cnc2c([nH]c3cccc(Cl)c32)c1=O (stereo unspecified)	-6	6	7	i	.	-4	5	-11
COc1c2c(nc3ccccc13)OC(C(C)(O)COC(C)=O)C2 (stereo unspecified)	3	-2	-2	i	-23	0	-20	-28
The results go on.
SMILES	eIF4H inh	MT1-MMP act inh	MT1-MMP act inh RFP	Rce1 inhib	HIV Env fusion	PABP polyA inh	CSC inhib	UUG fidelity
COC(=O)COc1ccccc1C(N)=O	-14	-2	-2	i	-16	-3	-2	-10
CCCCn1c(N)c(N(CC(C)C)C(=O)C2CCN(S(=O)(=O)c3ccc(OCC)cc3)CC2)c(=O)[nH]c1=O	.	2	-1	i	-22	.	-7	37
C=CCn1c(NCCO)nc2c1c(=O)n(C)c(=O)n2C	4	2	0	i	.	-2	.	-7
CC(CN1CCN(Cc2ccccc2)CC1)c1ccccc1 (stereo unspecified)	-5	3	6	i	5	7	4	-2
COc1ccc(C2/C(=C(\O)c3ccc4c(c3)CC(C)O4)C(=O)C(=O)N2Cc2cccnc2)c(OC)c1 (stereo unspecified)	1	0	1	.	-2	3	-11	-19
Cc1[nH]ccc(=O)c1OCc1c(F)cccc1Cl	-13	2	3	.	-5	9	-11	-3
Cc1ccc(OCc2nc3c4c(ncn3n2)-c2ccccc2CC42CCCC2)cc1	1	-7	-5	i	-8	-6	12	.
O=C(Nc1ccc(Cl)cc1Cl)c1cccc(N2C(=O)C=CC2=O)c1	.	-2	1	i	-24	.	70	-23
CN(C)C(=O)CSc1nnc(Cc2ccccc2)n1CC1CCCO1 (stereo unspecified)	1	0	4	i	-4	-2	-22	.
O=C(COC(=O)c1ccc(CNS(=O)(=O)c2ccc(F)c(Cl)c2)cc1)NCC1CCCCC1	-3	5	7	i	9	-2	32	.
CCC(=O)N1CCCC1(C)C(=O)Nc1ccc2c(c1)CCN2C(C)=O (stereo unspecified)	.	-1	6	.	-4	.	.	-13
Cc1c(Cl)cccc1NC(=O)CSc1nccn1C	-4	1	4	i	5	-18	-4	-19
CCc1nnc(NC(=O)CSc2nnc3c(n2)[nH]c2ccccc23)s1	13	7	1	i	13	1	-26	.
O=C1C(Cc2ccccc2)Nc2ncnc(N3CCOCC3)c2N1Cc1ccccc1 (stereo unspecified)	.	2&6	5&2	.	-1&5	.	.	13&-6
O=C(Nc1ccc(OC(=O)c2ccco2)cc1)c1ccco1	14	-5	-1	i	-10	-1	-8	-17
CCCCN1CCc2c([nH]c3c(C)cccc23)C1=O	-6	-12	-9	i	-160	5	-10	-7
CC(=O)Oc1ccc(C2=Cc3ccc(OC(C)=O)cc3OC2C)cc1 (stereo unspecified)	.	-3	-19	.	-105	.	.	0
CCOC(=O)C1(CCCc2ccccc2)CCN(C(=O)CN2CCOC2=O)CC1	1	-4	-3	i	18	-7	-3	.
CC(C)C[C@@H](CN1CCCC1CN1C(=S)NC[C@@H]1Cc1ccc(O)cc1)N1C[C@H](Cc2ccccc2)N(CCc2ccccc2)C1=S (stereo partly specified)	.	-3	-13	.	11	.	.	-24
O=C(NC(=S)NCc1cccnc1)c1ccccc1	-11	-3	2	i	.	12	.	-6
CCOC(=O)c1oc2ccccc2c1COC(=O)C(C)NC(=O)c1ccco1 (stereo unspecified)	.	-1	2	.	-1	.	0	-1
Cc1c(-c2n[nH]c(=S)n2-c2ccc(C(F)(F)F)cc2)nnn1-c1ccccc1	5	11	1	i	-16	-1	-8	.
S=c1[nH]nc(-c2ccccc2)n1/N=C/c1cccc(Cl)c1	10	0	-5	i	5	13	-10	7
CCOc1ccc(N2C(N)=NC(N)=NC2(C)C)cc1	-5	2	3	i	.	-5	1	-6
COc1ccc2[nH]c3c(c2c1)CCN1C(=O)C(CC(=O)NCc2cccc(C(F)(F)F)c2)C[C@H](C(=O)N(C(C)C)C(C)C)[C@@]31C (stereo partly specified)	.	-10	-16	.	30	.	.	-5
More results follow:
SMILES	eIF4H inh	MT1-MMP act inh	MT1-MMP act inh RFP	Rce1 inhib	HIV Env fusion	PABP polyA inh	CSC inhib	UUG fidelity
O=C(CCO)c1ccc(O)cc1	94*	0	2	i	.	51*	-8	-19
COc1ccc(OC)c(/C=C/C(=O)OCC(=O)NCc2cccs2)c1	.	0	2	.	.	.	1	2
Clc1ccccc1-c1cc(COc2ccc3ccccc3c2)no1	12	3	-2	i	.	19	.	-5
COCCNC(=O)CCSCc1ccccc1F	-2	3	6	i	.	5	-9	-26
Cc1cc(C(=O)O)ccc1NCc1ccncc1	-11	-1	2	i	1	-4	-3	-7
Cn1cccc1Cc1nnc(SCC(=O)NCc2ccco2)n1-c1ccc(F)cc1	-8	7	4	i	-2	-4	-13	-2
O=C(O)CSc1c2c(nc3cc(C(=O)Nc4cccc(C(F)(F)F)c4)ccc13)CCCC2	-10	-1	-3	i	-1	7	14	.
CCCS(=O)(=O)NC(=O)C1(C)CCN(C(=O)c2ccc3c(c2)OCO3)C1 (stereo unspecified)	.	2	3	.	-1	.	.	-11
Cc1c(C=C2C(=O)c3ccccc3C2=O)cc(C#N)n1C	0	.	.	i	.	-8	9	.
COc1ccccc1C(=O)CSc1ccccn1	3	-4	-3	i	-4	-14	1	.
CC(C)NC(=O)c1ccc(-c2ccc(Cl)c(C(F)(F)F)c2)o1	-4	1	1	i	15	-5	.	-14
COc1ccc(OCCn2cnc3ccccc32)cc1	-1	4	-7	i	-12	-8	-9	-4
CCOC(=O)c1ccc(N=C2NC(=O)CS2)cc1	-9	2	6	.	-478	4	-6	-7
COc1ccc(S(=O)(=O)N2CCN(c3c(C)cccc3C)CC2)cc1OC	2	-2	-1	i	-20	3	3	5
COc1ccccc1-c1coc2cc(OC(=O)N3CCOCC3)ccc2c1=O	0	0	3	i	-5	-4	-7	-3
